Compound activity (PubChem)
Rango complex inh: prevents formation of the Rango-importin beta complex. Q14974. Rango CFP/YFP FRET sensor + importin beta, 45 min. Potency, µM (doses to about 92.2 µM), inactives show at the highest dose inhibition of complex formation. actives 0.031% (n = 340,000); active = rising FRET ratio curve, often small or poorly fitted; inconclusive = mostly compound fluorescence or quenching in the first reads; inactive = flat curves in all reads;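 further: potency means the concentration at half of the fitted maximal effect; 0% = DMSO wells and 100% = buffer wells lacking importin beta; nearly all actives have a fitted effect of over 15% in size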
Target sequence (Q14974 whole entry, looked up): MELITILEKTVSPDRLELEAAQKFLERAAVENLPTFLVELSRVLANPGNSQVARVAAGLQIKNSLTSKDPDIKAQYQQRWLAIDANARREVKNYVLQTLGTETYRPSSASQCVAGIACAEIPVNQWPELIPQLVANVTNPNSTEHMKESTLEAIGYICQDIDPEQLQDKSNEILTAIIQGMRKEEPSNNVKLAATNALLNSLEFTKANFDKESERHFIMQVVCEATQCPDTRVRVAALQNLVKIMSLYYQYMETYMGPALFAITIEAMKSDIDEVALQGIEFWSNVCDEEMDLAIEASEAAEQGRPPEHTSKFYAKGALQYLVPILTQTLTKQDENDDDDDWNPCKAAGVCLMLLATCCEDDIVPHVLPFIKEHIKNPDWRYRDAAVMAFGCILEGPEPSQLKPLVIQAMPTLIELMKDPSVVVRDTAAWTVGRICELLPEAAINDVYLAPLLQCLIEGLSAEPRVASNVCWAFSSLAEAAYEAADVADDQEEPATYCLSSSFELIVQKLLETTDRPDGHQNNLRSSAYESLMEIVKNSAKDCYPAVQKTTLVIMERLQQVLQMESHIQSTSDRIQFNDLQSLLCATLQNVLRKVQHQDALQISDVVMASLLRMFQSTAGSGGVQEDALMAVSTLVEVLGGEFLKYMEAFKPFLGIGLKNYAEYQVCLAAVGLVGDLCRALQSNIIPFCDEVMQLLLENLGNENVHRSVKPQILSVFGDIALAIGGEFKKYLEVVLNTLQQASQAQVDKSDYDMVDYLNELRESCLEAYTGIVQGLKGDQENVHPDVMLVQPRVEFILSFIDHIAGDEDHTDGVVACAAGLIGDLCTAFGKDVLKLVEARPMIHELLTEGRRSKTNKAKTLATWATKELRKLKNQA
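FRET biosensor Rango (snurportin 1 IBB between N-terminal EYFP and C-terminal Cerulean), 50 nM in PBS/1 mM DTT/0.02% Tween-20/0.1% BSA, preincubated 5 min RT with compound; 0.125 microM importin beta added, 45 min RT, CFP/YFP FRET ratio read.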
GLA inh pH 4.5: inhibitors of human alpha-galactosidase A at pH 4.5; P06280; purified enzyme, 4-MU-alpha-Gal fluorescence, pH 4.5; activity change, negative = inhibition, % at 105 µM; 230,000 tested, under 10 active; inconclusive = small, poorly fitted or top-dose-only inhibition, or a rising curve; inactive = flat fitted curve, though single readings scatter; no compound was filed as active;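 further: 0% = full activity with enzyme and -100% = basal without enzyme; dose as in the result columns while the protocol names 77 µM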
Rango dissoc inh: prevents RanGTP from dissociating the Rango-importin beta complex. Potency, µM (doses to about 46.1 µM), without a hit: top-dose activity change, negative = inhibition. O95149+P62826. Biochemical FRET Rango-importin beta, RanGTP-induced dissociation. actives 0.071% (n = 340,000); active means falling FRET ratio curve, often poorly fitted, with flat reads before Ran was added; inconclusive means other falling curves, or compound fluorescence or quenching; inactive means flat or rising ratio curve;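 further: potency means the concentration at half of the fitted maximal effect; % of control where 0% means no effect; nearly all actives have a fitted effect of over 45% in size; -100% = wells without RanGTP and RCC1; the record marks most hits as doubtful in a second field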
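Quantitative HTS using a FRET biosensor: 0.1 uM Rango, 0.25 uM importin beta, 0.6 uM Ran, 2 mM GTP, 0.2 uM RCC1 final, PBS with DTT, Tween-20 and BSA. Post-read taken 45 min after Ran addition.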
miR-21 FLuc: raises the signal of a miR-21 reporter; Potency, µM (top dose mostly 38.3 µM), without a hit: at the highest dose reporter change, positive = more light; HeLa miR-21 FLuc reporter, luciferase, 48 h; 340,000 tested, under 10 active; active = well fitted rising curve with a large enough effect; inconclusive = small, poorly fitted or top-dose-only effect; inactive = no such curve, though single readings can be large or run the other way;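 further: % of control where 0% means no effect; miR-21 action dims this reporter so a rising signal means less miR-21 action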
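Using DMEM plus 10% FBS, HeLa miR-21-FLuc cells are incubated with test compounds (final up to about 40uM) for 48 hours; firefly luciferase signal is then imaged following reagent-mediated lysis.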
* = called active by the depositor; ? = inconclusive; nt = no result given; & = joins results of further samples; [ ] = remark or other dose. This is a subset; the hit share may differ from the screen's.

Screens in order – Rango complex inh | GLA inh pH 4.5 | Rango dissoc inh | miR-21 FLuc
COCCNC(=O)CN(C(=O)c1ccc(N2CCCC2)nc1)c1ccc(F)c(Cl)c1
    1.2% | nt | 1.7% | -2.1%
Cc1ccc(S(=O)(=O)/C(=C\N(C)C)c2cnc(Cl)s2)cc1
    ? | 9.2 | -19.0% | -2.3%
COc1ccc(C(=O)NC2c3ccccc3-c3ccccc32)cc1
    -0.2% | 3.6 | 12.4% | -1.1%
C/C(=N/NC(N)=S)c1ccc(Br)s1
    -2.7% | -1.5 | 12.1% | 19.7%
COc1ccccc1OCCC(=O)N1CCN(c2ccccc2OC)CC1
    -0.2% | 5.2 | 7.9% | -20.4%
COc1ccc(CCNC(=O)C(=O)N2CCCC2)cc1OC
    7.0% | 12.5 | 2.7% | 3.1%
Cc1csc2ncnc(NNC(=O)c3ccc(Cl)cc3)c12
    -1.7% | -2.2 | -10.0% | 14.0%
COc1ccccc1NS(=O)(=O)c1cccc(C(=O)N2CCN(Cc3ccc4c(c3)OCO4)CC2)c1
    ? | nt | 19.1% | nt
COC(=O)C(NC(C)=O)(Nc1ccc(Br)cn1)C(F)(F)F (stereo unspecified)
    0.3% | -3.7 | -5.1% | -0.4%
Nc1nc(NC(=O)c2cccc(S(=O)(=O)N3CCCCCC3)c2)nc(-c2ccccc2)n1
    2.0% | -10.9 | 1.1% | -6.9%
COc1ccc(CNC(=O)C(=O)c2cn(CC(=O)N3CCOCC3)c3ccccc23)cc1
    -2.2% | nt | -15.1% | -22.6%
Cc1ccc(C)c(N(C(=O)c2csnn2)C(C(=O)NC2CCCCC2)c2ccccn2)c1 (stereo unspecified)
    -0.4% | nt | -3.7% | 1.2%
CCOC(=O)c1csc(N)n1
    -3.5% | 2.5 | 0.3% | -55.9%
COc1ccc(-c2csc(NC(=O)C3=NN(c4ccccc4)C(=O)CC3)n2)cc1
    -3.1% | -3.6[21.1 µM] | 16.0% | ?
Cc1cc(NC(=O)COC(=O)C2CC(=O)N(c3ccc(Cl)cc3)C2)no1 (stereo unspecified)
    4.6% | nt | 0.8% | 7.7%
O=C(Nc1ccc(Nc2ccncc2)cc1)c1ccc(Nc2ccnc3ccc([N+](=O)[O-])cc23)cc1[N+](=O)[O-]
    3.8% | -19.9 | -2.3% | 0.8%
CCOC(=O)/C(C#N)=C/Nc1ccccc1OC
    0.8% | 1.8 | 32.8% | -81.0%
CCN(CC(=O)NCc1ccc(Cl)cc1)C(=O)c1cccc(S(=O)(=O)Nc2ccc(OC)cc2)c1
    2.0% | nt | -0.2% | nt
Cc1cccc(N2CC(C(=O)Nc3nnc(SCCN4CCOCC4)s3)CC2=O)c1 (stereo unspecified)
    -0.4% | nt | 3.3% | -2.1%
N#CC1(NC(=O)CSc2nnc(Cc3ccccc3)o2)CCCCC1
    0.0% | nt | -4.1% | nt
Cc1ccc(OCc2nc(-c3ccc(Cl)cc3)n[nH]2)cc1
    3.3% | -5.0 | 14.1% | -29.6%
CC(=O)Nc1ccc(NC(=O)C(C)Sc2n[nH]c(=O)n2Cc2ccccc2)cc1 (stereo unspecified)
    1.1% | nt | -1.1% | -1.1%
CCN(CC)C(=O)N1CCN(C)CC1
    7.5% | -14.7&-3.9&4.3 | 11.9% | -2.7%
O=C1CC(c2cccc([N+](=O)[O-])c2)c2c(ccc3ccccc23)N1 (stereo unspecified)
    4.6% | 4.6 | -4.1% | 20.5%
Cc1nc2ccc(NC(=O)CS(=O)(=O)c3ccccc3)cc2s1
    0.2% | nt | 2.9% | nt
Cc1cc(C)n2nc(-c3ccc(F)cc3)nc2n1
    -2.7% | -0.5 | -5.9% | -47.3%
O=C(O)C1Nc2ccc(C(F)(F)F)cc2C2OCCC12 (stereo unspecified)
    -0.3% | nt | 7.3% | nt
COc1ccc(NC(=O)CNS(=O)(=O)c2cccs2)cc1
    -0.6% | 5.8 | -3.3% | -24.0%
COc1cccc(OC)c1OCCCCCCN1CCN(C)CC1
    ? | nt | 11.3% | -0.7%
Cc1cc(OCC(=O)N2CCC(C(=O)O)CC2)c2c(C)c(C)c(=O)oc2c1
    0.1% | nt | -9.0% | 1.7%

Grouped by structure: the compounds so far containing a CF3 group.
Screens in order – Rango complex inh | GLA inh pH 4.5 | Rango dissoc inh | miR-21 FLuc
COC(=O)C(NC(C)=O)(Nc1ccc(Br)cn1)C(F)(F)F (stereo unspecified)
    0.3% | -3.7 | -5.1% | -0.4%
O=C(O)C1Nc2ccc(C(F)(F)F)cc2C2OCCC12 (stereo unspecified)
    -0.3% | nt | 7.3% | nt

(list continues)
Screens in order – Rango complex inh | GLA inh pH 4.5 | Rango dissoc inh | miR-21 FLuc
CC1CCN(CCCNC(=O)c2cc3c(Cl)nc4ccccc4c3s2)CC1
    1.3% | -9.8 | 4.8% | 11.0%
Cc1[nH]n(-c2ccccc2)c(=O)c1N=Nc1nccs1
    -0.6% | 0.7 | 20.5% | 13.9%
COc1ccc(-c2nc3c(c4nnc(SC(C)C(=O)Nc5ccc(C)cc5)n24)COC(C)(C)C3)cc1 (stereo unspecified)
    -3.0% | 6.9 | -1.2% | -4.5%
CCOC(=O)C1CCN(C(=O)c2cccc(S(=O)(=O)N(C)C3CCCCC3)c2)CC1
    -0.9% | nt | -8.1% | nt
CCCOc1c(OC)cccc1C1CC(=O)Nc2cc3c(cc21)OCO3 (stereo unspecified)
    -2.5% | -1.1 | 18.1% | 23.2%
COC(=O)CS(=O)(=O)c1ccsc1C(=O)Nc1ccc(F)c(F)c1
    -0.7% | -3.5 | 8.5% | 0.1%
COc1ccc(N=C2SC(CC(=O)Nc3ccccc3F)C(=O)N2Cc2ccco2)cc1 (stereo unspecified)
    7.6% | -8.7 | 25.7% | 9.3%
O=C1C2=C(SCCS2)C(=O)N1CCCO
    ? | 3.9 | -1.2% | 0.7%
Cc1c(NC(=O)C(C)OC(=O)c2cccc(S(=O)(=O)N(C)C)c2)c(=O)n(-c2ccccc2)n1C (stereo unspecified)
    -0.4% | -7.9 | -10.2% | -1.4%
Cc1ccc(C(=O)N2CCN(c3cccc(Cl)c3)CC2)cc1C
    3.3% | -8.7 | 8.7% | 6.7%
O=c1[nH]c(SCc2ccccc2)nc2c1cnn2-c1ccc(F)cc1
    -2.9% | -2.5 | -7.1% | -2.7%
COc1ccc(NC(=O)Cn2nnc(C(=O)Nc3ccccc3C)c2N)cc1
    -3.8% | -6.5 | -19.6% | 6.4%
CCc1cccc(N(CC(=O)NC2CCCCC2)C(=O)c2csnn2)c1
    0.6% | nt | 12.0% | -1.9%
CCN1CNC(=S)N(C(C)c2ccccc2)C1 (stereo unspecified)
    0.5% | 6.8 | -11.1% | -9.6%
O=C(Cn1c(CO)nc2ccccc21)NCCc1ccccc1
    0.5% | 4.2 | -4.4% | -4.3%
CC12CCC(=O)C=C1CCC1C3CC(O)C(O)(C(=O)CO)C3(C)CC(O)C12F (stereo unspecified)
    6.2% | nt | 9.5% | nt
N#CC1=C(N)NC(SCC(=O)Nc2ccccc2)=C(C#N)C12CCCCC2
    -2.0% | -3.6 | -0.3% | 10.8%
CC1CN(C(=O)COc2ccc3ccccc3c2)CC(C)O1 (stereo unspecified)
    -2.9% | nt | 6.7% | nt
O=C(CSc1n[nH]c(=O)[nH]c1=O)N/N=C/C=C/c1ccccc1
    -0.4% | -4.4 | 0.0% | 7.3%
Cc1ccc(C(=O)c2ccccc2C(=O)OCC(=O)N2CC(C)CC(C)C2)cc1 (stereo unspecified)
    0.7% | nt | -7.5% | nt
O=C(NCCO)c1ccc2c3n(nc2c1)-c1ccccc1CO3
    -1.8% | 1.8 | 1.3% | -23.5%
COc1ccc(NC(=O)COC(=O)CC23CC4CC(CC(C4)C2)C3)c([N+](=O)[O-])c1
    3.9% | 4.4 | 19.7% | -10.8%
O=c1c(O[C@@H]2O[C@H](CO)[C@@H](O)[C@H](O)[C@H]2O)c(-c2ccc(O)c(O)c2)oc2cc(O)cc(O)c12
    nt | -15.1 | nt | 15.9%
COc1ccccc1/C=C/C(=O)c1cc(Br)ccc1OC(=O)c1ccco1
    -4.2% | nt | -10.1% | nt
COc1ccc(NC(=O)CN(C)CC(=O)NCC2CCCCC2)cc1
    10.0% | nt | 21.3% | nt
Cc1ccc(C(=O)COC(=O)c2cccc(NC(=O)c3ccc([N+](=O)[O-])cc3[N+](=O)[O-])c2)cc1
    0.9% | -16.2 | -8.8% | -46.8%
Cc1cccc(-n2ccnc2SCC(=O)Nc2cc(C)on2)c1
    -0.6% | 6.0 | -2.8% | -2.3%
Cc1cc(C)c2c(n1)sc1c(=O)n(Cc3ccccc3Cl)nnc12
    0.4% | -4.1 | -4.9% | -1.0%
COc1ccc(-c2ccc(/C=N/NC(=O)c3cccnc3)o2)c([N+](=O)[O-])c1
    ? | -7.5 | ? | -9.0%
Cc1csc(SCC(=O)NCc2cccs2)n1
    1.1% | 1.9 | -0.8% | -4.6%
CC(O)(CS(=O)(=O)Cc1ccccc1)c1ccc(Cl)cc1 (stereo unspecified)
    0.2% | nt | 5.1% | -4.1%
COC(=O)C1CN(C(=O)C(C)Oc2cc(C)ccc2C(C)C)c2ccccc2O1 (stereo unspecified)
    0.4% | nt | -6.1% | -0.2%
Cc1cc(C)n(-c2ccc(C(=O)OCC(=O)NCc3ccc(Cl)cc3)cc2)n1
    -3.6% | 0.4 | 0.7% | -2.4%
CN1CCN(C(=O)c2cc(=O)c3cc(Cl)cc(Cl)c3o2)CC1
    3.8% | nt | 5.6% | 0.1%
O=C(OCC(=O)N1CCN(C(=O)COC(=O)c2ccncc2)CC1)c1ccncc1
    1.4% | -0.6 | -12.7% | 0.1%
O=S(=O)(c1ccc(NC(=S)NCc2ccc(F)cc2)cc1)N1CCOCC1
    4.4% | nt | 2.2% | 8.3%
O=C(NC(=S)Nc1cccnc1Cl)c1ccco1
    1.9% | 0.8 | -1.8% | -46.4%
O=C(N/N=C/c1cccnc1)c1ccc(NC(=O)c2ccccc2Cl)cc1
    0.3% | nt | -1.8% | 15.2%
Cc1ccc(S(=O)(=O)N(C)c2ccc(OCC(=O)Nc3ccc(S(C)(=O)=O)cc3)cc2)cc1
    -3.3% | nt | -1.5% | nt
CCN1C(c2ccccc2)C(C)C(=O)C(C)C1c1ccccc1 (stereo unspecified)
    -0.2% | -9.7 | 9.7% | -2.8%
CC(C)N(CC#CCC1(O)c2ccccc2-c2ccccc21)CCO
    0.4% | 0.1 | 3.6% | -3.8%
COC(=O)c1ccc2c(=O)[nH]c(CN3c4ccccc4CC3C)nc2c1 (stereo unspecified)
    1.0% | -2.0 | 18.1% | -1.4%
COC(=O)c1cc(-c2ccccc2)n(CC(=O)O)c1C
    -0.7% | 2.2 | -5.8% | -3.8%
CCN(CC(=O)Nc1ccc(NC(C)=O)cc1)C(=O)CCN1C(=O)c2cccc([N+](=O)[O-])c2C1=O
    1.7% | nt | 2.0% | 1.8%
Cc1noc(C)c1-c1nc(CSc2ccccc2)no1
    -0.2% | -2.4 | 10.4% | -29.6%
Cc1ccc(NC(=O)COC(=O)C2CSC3(C)CCC(=O)N23)cc1S(=O)(=O)N1CCOCC1 (stereo unspecified)
    -0.2% | -0.8 | 10.8% | 0.4%
Cc1ccc(NC(=O)CSc2nnc(-c3ccncc3)o2)cc1C
    3.1% | -2.2 | 1.7% | -8.6%
CCOC(=O)Cc1csc(SCC(=O)N2CCN(c3ccc(OC)cc3)CC2)n1
    0.9% | 0.8 | -4.0% | -0.9%
COc1ccc(Cl)cc1C(Nc1cccnc1)c1ccc2cccnc2c1O (stereo unspecified)
    ? | -3.0 | -14.0% | 23.1%
C/C(=N\NC(=O)Cn1nc(C)c([N+](=O)[O-])c1C)c1ccco1
    1.5% | 1.9 | -2.3% | -2.4%
Cc1nc2c(c(=O)n1CCC1=CCCCC1)c1nc3ccccc3nc1n2/N=C/c1ccccc1
    -0.4% | 6.4 | 0.2% | -8.1%
Cc1onc(-c2c(F)cccc2Cl)c1C(=O)NC1CC1
    -1.2% | nt | 10.8% | -1.9%
CC(=O)O[C@@H]1C[C@H]2C(C)=C[C@H]3OC(=O)[C@@H](C)[C@H]3C[C@H]2[C@]1(C)O
    -1.4% | -4.0 | 3.5% | 4.8%
